Screens as filed in PubChem BioAssay.
Rango dissoc inh – prevents RanGTP from dissociating the Rango-importin beta complex | Biochemical FRET Rango-importin beta, RanGTP-induced dissociation | Potency, µM (top dose mostly 46.1 µM), without a hit: at the highest dose activity change, negative = inhibition | 340,000 tested, 0.071% active; active means falling FRET ratio curve, often poorly fitted, with flat reads before Ran was added; inconclusive means other falling curves, or compound fluorescence or quenching; inactive means flat or rising ratio curve;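 note: potency is the fitted concentration of half-maximal effect; % of control where 0% means no effect; nearly all actives have a fitted effect of over 45% in size; -100% = wells without RanGTP and RCC1; the record marks most hits as doubtful in a second field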
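Compounds sat 5 min at room temperature with 0.1 uM Rango biosensor plus 0.25 uM importin beta, then FRET pre-read. RanGTP-RCC1 (0.6 uM Ran, 2mM GTP, 0.2 uM RCC1) added for 45 min, and the CFP/YFP post-read measured blocked complex dissociation.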
GLA inh pH 4.5 – inhibitors of human alpha-galactosidase A at pH 4.5. activity change, negative = inhibition, % at 105 µM. 230,000 tested, under 10 active. purified enzyme, 4-MU-alpha-Gal fluorescence, pH 4.5. P06280. AID 1467; inconclusive = small, poorly fitted or top-dose-only inhibition, or a rising curve; inactive = flat fitted curve, though single readings scatter; no compound was filed as active;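 note: 0% = full activity with enzyme and -100% = basal without enzyme; dose as in the result columns while the protocol names 77 µM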
Rango complex inh – inhibitors of Rango-importin beta complex formation; Rango CFP/YFP FRET sensor + importin beta, 45 min; 340,000 tested, 0.031% active; Potency, µM (titrated, usually from 92.2 µM), without a hit: at the top dose inhibition of complex formation; Q14974; active = rising FRET ratio curve, often small or poorly fitted; inconclusive = mostly compound fluorescence or quenching in the first reads; inactive = flat curves in all reads;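 note: potency is the fitted concentration of half-maximal effect; 0% = DMSO wells and 100% = buffer wells lacking importin beta; nearly all actives have a fitted effect of over 15% in size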
Target sequence (Q14974 whole entry, looked up): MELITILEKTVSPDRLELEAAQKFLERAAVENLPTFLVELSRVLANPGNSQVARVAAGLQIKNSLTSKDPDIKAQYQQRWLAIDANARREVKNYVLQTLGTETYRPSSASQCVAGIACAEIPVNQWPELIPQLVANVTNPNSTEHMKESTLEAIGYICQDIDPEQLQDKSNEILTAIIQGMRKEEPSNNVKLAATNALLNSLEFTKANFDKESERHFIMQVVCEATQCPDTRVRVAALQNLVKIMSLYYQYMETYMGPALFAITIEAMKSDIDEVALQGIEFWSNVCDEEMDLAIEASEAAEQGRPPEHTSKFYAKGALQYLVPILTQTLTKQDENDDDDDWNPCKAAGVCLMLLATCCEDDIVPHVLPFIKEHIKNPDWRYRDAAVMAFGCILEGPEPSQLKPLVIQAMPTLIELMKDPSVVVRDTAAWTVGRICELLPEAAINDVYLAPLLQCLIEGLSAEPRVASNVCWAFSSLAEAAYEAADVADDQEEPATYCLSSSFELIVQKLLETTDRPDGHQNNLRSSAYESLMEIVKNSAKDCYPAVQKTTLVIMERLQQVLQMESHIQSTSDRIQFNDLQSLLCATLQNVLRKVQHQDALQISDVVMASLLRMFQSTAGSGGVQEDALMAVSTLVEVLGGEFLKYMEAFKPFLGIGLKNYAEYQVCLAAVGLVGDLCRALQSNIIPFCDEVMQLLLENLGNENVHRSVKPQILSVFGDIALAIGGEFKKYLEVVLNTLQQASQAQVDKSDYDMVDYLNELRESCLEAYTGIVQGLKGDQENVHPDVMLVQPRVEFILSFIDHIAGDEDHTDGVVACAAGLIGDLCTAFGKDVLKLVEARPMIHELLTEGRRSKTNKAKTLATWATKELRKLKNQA
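FRET biosensor Rango (snurportin 1 IBB between N-terminal EYFP and C-terminal Cerulean), 50 nM in PBS/1 mM DTT/0.02% Tween-20/0.1% BSA, preincubated 5 min RT with compound; 0.125 microM importin beta added, 45 min RT, CFP/YFP FRET ratio read.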
miR-21 reporter – raises the signal of a miR-21 reporter. AID 2288. 340,000 tested, under 10 active. Potency, µM (highest dose often 38.3 µM), inactives show at the top dose reporter change, positive = more light. HeLa miR-21 FLuc reporter, luciferase, 48 h; active = well fitted rising curve with a large enough effect; inconclusive = small, poorly fitted or top-dose-only effect; inactive = no such curve, though single readings can be large or run the other way;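 note: % of control where 0% means no effect; miR-21 action dims this reporter so a rising signal means less miR-21 action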
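Using DMEM plus 10% FBS, HeLa miR-21-FLuc cells are incubated with test compounds (final up to about 40uM) for 48 hours; firefly luciferase signal is then imaged following reagent-mediated lysis.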
Numbers without * were called inactive; ? = inconclusive; nt = no result given.

no.	Rango dissoc inh	GLA inh pH 4.5	Rango complex inh	miR-21 reporter	structure
1	-4%	-5	4.1%	-3%	CCOC(=O)CSc1nnc([C@H](CC(C)C)NC(=O)OC(C)(C)C)o1
2	0%	2	-0.4%	-1%	COC(=O)c1cccc(NC(=O)/C(=C\c2ccccc2)NC(=O)c2ccccc2Cl)c1
3	7%	0	0.1%	-1%	CC1(C)Oc2ccc(C(=O)NN)cc2NC1=O
4	-4%	-5	-2.6%	-23%	COc1ccc(NC(=O)c2ccc(-c3ccc(C)c4ccccc34)o2)cc1
5	18%	7	-6.9%	-10%	CC1CCN(C(=O)CSc2ccc(-c3ccccc3)nn2)CC1
6	0%	nt	0.3%	-4%	FC(F)(F)c1cc(NC2CCCCC2)ccn1
7	5%	-2	3.6%	-1%	CN(C)c1cc[n+](/C(C(=S)Nc2ccc(SC(F)F)cc2)=C(/[O-])c2ccccc2)cc1
8	2%	-7	2.7%	0%	CC(=O)Nc1ccc(S(=O)(=O)Oc2ccc(C=O)cc2)cc1
9	-17%	nt	-4.5%	nt	CC(C)c1ccc(C2(C)NC(=O)N(CC(=O)NCC3COc4ccccc4O3)C2=O)cc1 (centres undefined)
10	-2%	nt	4.5%	nt	C[C@H](CO)N1C[C@H](C)[C@@H](CN(C)C(=O)Nc2ccc(C(F)(F)F)cc2)Oc2ccc(NS(=O)(=O)c3cn(C)cn3)cc2C1=O
11	-19%	7	-0.9%	-3%	COc1cccc(CN2CCNC(=O)C2CC(=O)NC2Cc3ccccc3C2)c1 (centres undefined)
12	15%	nt	4.0%	-1%	COC(=O)c1cccc(NC(=O)CSc2nnc(-c3ccco3)o2)c1
13	-11%	-2	-0.7%	-1%	CCC(C)NC(=O)C1CCN(S(=O)(=O)N2CCC3(CC2)OCCO3)CC1 (centres undefined)
14	?	nt	-3.7%	-15%	CCCc1ccc2oc(C(=O)N3CCC(N4CCCC(O)C4)CC3)c(C)c2c1 (centres undefined)
15	-6%	nt	?	nt	COc1cc(C(=O)NCc2cn3ccsc3n2)cc(OC)c1OC
16	4%	0	0.3%	2%	COC(=O)CSc1nnc2n1C(C)(C)Cc1ccccc1-2
17	-17%	nt	-0.7%	3%	Cc1nc(C(=O)N2CCCC(Nc3ccc(C)c(C)c3)C2)cs1 (centres undefined)
18	5%	-3	8.6%	-10%	COc1ccc(N(Cc2cc3cc(OC)ccc3[nH]c2=O)S(C)(=O)=O)cc1
19	-13%	-1	-2.0%	-17%	O=C(NC12CC3CC(CC(C3)C1)C2)N1CCC(O)CC1
20	-1%	nt	-3.0%	nt	C/C=C/c1ccc(OCC(=O)OCC(=O)Nc2c(C)nn(-c3ccccc3)c2C)c(OC)c1
21	-12%	6	?	11%	O=C(NC(=S)NNC(=O)c1cc2ccccc2cc1O)c1ccco1
22	10%	nt	-2.8%	-1%	COc1ccccc1NC(=O)NNC(=O)CCN1CCOCC1
23	-8%	2	4.2%	-3%	O=C(CCC(=O)NNC(=O)Nc1ccc(Cl)cc1)NCc1ccccc1
24	11%	2	-1.1%	-22%	COC(=O)c1ccc(CSc2nnc(NC(=O)c3cc4c(s3)CCCC4)s2)cc1
25	12%	5	-5.5%	-20%	Cc1cc(C(=O)NCCCc2ccccc2)no1
26	32%	-5	6.1%	-60%	CC(C)(C)c1ccc(C(=O)Nc2ccc(Cl)cc2)cc1
27	8%	nt	-1.0%	-2%	COc1ccccc1OCC(=O)NC1CCCc2ccccc21 (centres undefined)
28	-6%	nt	-2.0%	nt	N#CCC(=O)Nc1ccc(C(=O)OCC(=O)C23CC4CC(CC(C4)C2)C3)cc1
29	1%	0	-2.5%	16%	O=C(/C=C/c1ccc(F)cc1)NNC(=O)CCN1CCN(Cc2ccccc2)CC1
30	-8%	-9	3.3%	-38%	COc1ccc([N+](=O)[O-])cc1C(=O)Nc1ccc(Cc2ccncc2)cc1

Ordered by length of the SMILES (high to low): part of the list above.
no.	Rango dissoc inh	GLA inh pH 4.5	Rango complex inh	miR-21 reporter	structure
7	5%	-2	3.6%	-1%	CN(C)c1cc[n+](/C(C(=S)Nc2ccc(SC(F)F)cc2)=C(/[O-])c2ccccc2)cc1
20	-1%	nt	-3.0%	nt	C/C=C/c1ccc(OCC(=O)OCC(=O)Nc2c(C)nn(-c3ccccc3)c2C)c(OC)c1
28	-6%	nt	-2.0%	nt	N#CCC(=O)Nc1ccc(C(=O)OCC(=O)C23CC4CC(CC(C4)C2)C3)cc1
30	-8%	-9	3.3%	-38%	COc1ccc([N+](=O)[O-])cc1C(=O)Nc1ccc(Cc2ccncc2)cc1
11	-19%	7	-0.9%	-3%	COc1cccc(CN2CCNC(=O)C2CC(=O)NC2Cc3ccccc3C2)c1 (centres undefined)
23	-8%	2	4.2%	-3%	O=C(CCC(=O)NNC(=O)Nc1ccc(Cl)cc1)NCc1ccccc1
21	-12%	6	?	11%	O=C(NC(=S)NNC(=O)c1cc2ccccc2cc1O)c1ccco1
5	18%	7	-6.9%	-10%	CC1CCN(C(=O)CSc2ccc(-c3ccccc3)nn2)CC1
26	32%	-5	6.1%	-60%	CC(C)(C)c1ccc(C(=O)Nc2ccc(Cl)cc2)cc1
22	10%	nt	-2.8%	-1%	COc1ccccc1NC(=O)NNC(=O)CCN1CCOCC1
3	7%	0	0.1%	-1%	CC1(C)Oc2ccc(C(=O)NN)cc2NC1=O
6	0%	nt	0.3%	-4%	FC(F)(F)c1cc(NC2CCCCC2)ccn1

(listing goes on)
no.	Rango dissoc inh	GLA inh pH 4.5	Rango complex inh	miR-21 reporter	structure
31	3%	nt	3.0%	nt	Oc1ccc(C[C@@H]2CNCCN2CCc2cccc3ccccc23)cc1
32	11%	nt	0.0%	nt	CC[C@]12c3[nH]c4ccccc4c3CCN1C(=O)C(CC(=O)NCCCN(C)C)C[C@@H]2C(=O)N1CCN(C(=O)C2CC2)CC1 (some centres undefined)
33	11%	-1	0.1%	-1%	CCOC(=O)CCn1nnc(N)n1
34	0%	-7	0.2%	-33%	O=C(Nc1ccc(-n2cnnn2)cc1)c1cn2ccccc2n1
35	-11%	nt	0.0%	19%	CCCCCC(O)(c1ccc(OC)cc1)C(CN1CCOCC1)c1ccccc1 (centres undefined)
36	-2%	2	-1.3%	-1%	O=c1c(Cl)c(N2CCC3(CC2)OCCO3)cnn1C12CC3CC(CC(C3)C1)C2
37	12%	nt	-2.1%	6%	COc1ccccc1N1CCN(C(=O)C(C)CS(=O)(=O)c2ccc3c(c2)NC(=O)CS3)CC1 (centres undefined)
38	-2%	nt	1.3%	nt	O=C(NNC(=O)c1ccccc1O)c1ccc(NS(=O)(=O)c2ccc(F)cc2)cc1
39	11%	-20	-1.4%	-4%	CC(C)N(CCNCC(O)COc1ccc(C(C)(C)c2ccccc2)cc1)C(C)C (centres undefined)
40	-1%	nt	0.9%	nt	O=C1CC2C(CCC23OCCO3)c2ccc3ccccc3c21 (centres undefined)
41	0%	nt	?	-65%	COc1ccc(NC(=O)CSc2nc(SC)ns2)c(OC)c1
42	-5%	5	0.7%	-15%	CCCc1cc(=O)[nH]c(SCc2csc(-c3ccccc3)n2)n1
43	1%	4	0.2%	-1%	Cc1ccc(Cn2ncc(C)c2N)o1
44	?	-7	-7.4%	-14%	COc1ccc(OC)c(C2C(C(=O)c3cc4ccccc4o3)=C(O)C(=O)N2c2cc(C)on2)c1 (centres undefined)
45	-4%	-3	1.8%	-4%	COc1cc(C(=O)COC(=O)CNC(=O)C2CCCCC2)cc(OC)c1OC
46	21%	-17	3.3%	-2%	Nc1cc(C(F)(F)F)ccc1Nc1ccccc1
47	-1%	nt	-2.8%	nt	O=C(COC(=O)CSc1ccc(Cl)cc1)Nc1ccccc1
48	-2%	7	-0.4%	-7%	CC1=[N+](C)N(c2ccccc2)C(=O)C1N=Cc1c(Cl)cccc1Cl (centres undefined)
49	4%	nt	2.2%	nt	COc1ccc(C(=O)OCC(=O)c2ccc(Cl)s2)c(OC)c1OC
50	0%	1	0.5%	-15%	CCOC(=O)c1sc(NC(=O)C2CC2)nc1C
51	-9%	-4	-0.8%	2%	COc1ccccc1C(=O)Nc1c(C)n(C)n(-c2ccccc2)c1=O
52	-1%	-8	4.2%	-1%	COC(=O)C1=C(N)Oc2cc(C)[nH]c(=O)c2C1c1cccnc1 (centres undefined)
53	2%	nt	-0.6%	nt	CCCCC1CC(=O)NC1(C(=O)OCC)C(=O)OCC (centres undefined)
54	-20%	-1	1.3%	-2%	O=C(O)CN1C(=O)/C(=C/C=C/c2ccccc2)SC1=S
55	1%	?	-0.1%	-11%	CCOc1ccc2nc(SCc3cccc(C)c3)nc(C)c2c1
56	9%	-15	2.9%	-35%	N/C(Cc1cccs1)=N\OC(=O)COc1ccccc1
57	1%	-5	2.4%	-4%	NS(=O)(=O)c1ccc(NC(=O)CCC2CCCCC2)cc1
58	-9%	-4	3.6%	-2%	O=C(NNC(=O)c1ccc2nonc2c1)Nc1ccc(Cl)cc1
59	-23%	-4	?	-11%	N#C/C(=C\c1ccco1)C(=O)Nc1cccc2ncccc12
60	4%	nt	1.8%	nt	O=C1CCC([N+](=O)[O-])C(c2ccc(C(F)(F)F)cc2)N1 (centres undefined)
61	-11%	-3	-1.1%	-5%	O=C(NCc1nc2ccccc2[nH]1)C1CCCCC1
62	1%	nt	2.0%	nt	O=C(CCc1nc2ccccc2c(=O)[nH]1)Nc1cc(Cl)ccc1N1CCCCC1
63	-10%	nt	-0.4%	nt	COCCN(Cc1ccccc1)C(=O)C1CCN(C(=O)Nc2ccccc2)CC1
64	9%	1	-0.1%	-5%	CCOC(=O)C(NC(=O)CC)(N1CCc2ccccc2C1)C(F)(F)F (centres undefined)
65	-9%	7	-0.3%	-5%	O=C(CCc1c[nH]c2ccccc12)NCc1ccc2c(c1)OCO2
66	1%	nt	1.2%	nt	CSc1ccc(C(=O)Nc2cc(S(=O)(=O)N3CCOCC3)ccc2N2CCOCC2)cc1[N+](=O)[O-]
67	-6%	4	-1.1%	0%	CNc1cncc(C(=O)O)c1
68	2%	nt	?	-2%	Cc1ccc(S(=O)(=O)N2CCC(C(=O)OC(C)C(=O)NCc3ccccc3)CC2)cc1C (centres undefined)
69	8%	-5	5.6%	-2%	CCn1c(SCC(=O)Nc2cccc(C)n2)nnc1-c1ccco1
70	16%	-3	-4.4%	-2%	CCOCCCNC(=S)N1CCN(Cc2ccc3c(c2)OCO3)CC1
71	0%	3	0.2%	-9%	Cc1ccc(N=C2SC(C(=O)O)CC(=O)N2C)cc1C (centres undefined)
72	-1%	12	-0.2%	-15%	O=C(CN(C(=O)CCC(=O)Nc1nccs1)c1ccc2c(c1)OCO2)NCC1CCCO1 (centres undefined)
73	-4%	7	-2.7%	-9%	CC(=C/c1ccccc1)/C=N/n1cnnc1
74	-3%	4	-0.8%	15%	c1ccc2c(c1)OCCOCCOCCOCCOc1ccccc1OCCOCCOCCO2
75	-2%	nt	8.6%	nt	CC(=O)c1ccc(NC(=O)CSc2nnc(C3CC3)n2C2CC2)cc1
76	24%	1	-1.6%	-3%	COc1ccc(NC(=O)N2CCN(CCC#N)CC2)cc1
77	-1%	nt	4.2%	?	CC(C)(C)n1nnnc1C(c1ccc2ncccc2c1)N1CCSCC1 (centres undefined)
78	15%	nt	-1.4%	nt	O=C(NC(=O)c1ccccc1)C1=C(N2CCCC2)COC1=O
79	-6%	-5	-1.3%	3%	Cc1cccc(N2C(=S)NC3c4cc(Cl)ccc4OC2(C)C3C(=O)N(C)C)c1 (centres undefined)
80	-12%	nt	1.3%	4%	Cc1ccc(/C=C2\SC(=S)N(CCC(=O)NCCCN3CCOCC3)C2=O)cc1
81	-15%	-1	?	0%	O=C(O)C(Oc1ccc2c(-c3ccccc3)cc(=O)oc2c1)c1ccccc1 (centres undefined)
82	-6%	-8	2.6%	0%	COc1ccccc1NS(=O)(=O)c1cc(Cl)ccc1OC

These rows are one share of the data; rates above refer to the full screens.
